miR-21 FLuc: miR-21 reporter, rising signal; HeLa miR-21 FLuc reporter, luciferase, 48 h; Potency, µM (titrated, usually from 38.3 µM), inactives show at the top dose reporter change, positive = more light; 340,000 tested, under 10 active; active = well fitted rising curve with a large enough effect; inconclusive = small, poorly fitted or top-dose-only effect; inactive = no such curve, though single readings can be large or run the other way;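 also: % of control where 0% means no effect; miR-21 action dims this reporter so a rising signal means less miR-21 action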
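Luminescence from a firefly luciferase reporter carrying a miR-21 binding site downstream, stably expressed under a CMV promoter in HeLa cells that make miR-21 endogenously, reports miRNA modulation after 48 h compound exposure up to approximately 40uM final.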
Rango-impB inh: inhibitors of Rango-importin beta complex formation; Rango CFP/YFP FRET sensor + importin beta, 45 min; Potency, µM (top dose mostly 92.2 µM), for inactives: at the top dose inhibition of complex formation; actives 0.031% (n = 340,000); AID 540263; active = rising FRET ratio curve, often small or poorly fitted; inconclusive = mostly compound fluorescence or quenching in the first reads; inactive = flat curves in all reads;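 also: potency is read from the fitted curve at half-maximal effect; 0% = DMSO wells and 100% = buffer wells lacking importin beta; nearly all actives have a fitted effect of over 15% in size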
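FRET biosensor Rango (snurportin 1 IBB between N-terminal EYFP and C-terminal Cerulean), 50 nM in PBS/1 mM DTT/0.02% Tween-20/0.1% BSA, preincubated 5 min RT with compound; 0.125 microM importin beta added, 45 min RT, CFP/YFP FRET ratio read.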
GLA inh pH 4.5: alpha-galactosidase A (human) inhibition, pH 4.5. 230,000 tested, under 10 active. activity change, negative = inhibition, % at 105 µM. purified enzyme, 4-MU-alpha-Gal fluorescence, pH 4.5. P06280; inconclusive = small, poorly fitted or top-dose-only inhibition, or a rising curve; inactive = flat fitted curve, though single readings scatter; no compound was filed as active;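 also: 0% = full activity with enzyme and -100% = basal without enzyme; dose as in the result columns while the protocol names 77 µM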
Target sequence (P06280 whole entry, looked up): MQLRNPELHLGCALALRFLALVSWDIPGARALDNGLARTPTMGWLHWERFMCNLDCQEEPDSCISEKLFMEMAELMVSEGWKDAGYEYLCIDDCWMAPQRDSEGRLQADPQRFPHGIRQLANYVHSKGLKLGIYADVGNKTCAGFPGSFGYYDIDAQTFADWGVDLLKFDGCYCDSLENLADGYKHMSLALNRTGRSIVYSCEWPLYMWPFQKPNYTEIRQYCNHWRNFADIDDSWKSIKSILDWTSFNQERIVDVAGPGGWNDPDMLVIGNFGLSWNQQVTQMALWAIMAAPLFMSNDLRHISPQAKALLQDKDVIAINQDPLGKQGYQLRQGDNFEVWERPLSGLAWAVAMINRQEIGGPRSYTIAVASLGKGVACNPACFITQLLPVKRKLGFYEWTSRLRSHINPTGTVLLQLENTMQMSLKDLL
Rango release inh: inhibition of RanGTP-driven Rango-importin beta dissociation; O95149+P62826; Biochemical FRET Rango-importin beta, RanGTP-induced dissociation; Potency, µM (highest dose often 46.1 µM), for the others: top-dose activity change, negative = inhibition; actives 0.071% (n = 340,000); AID 540253; active means falling FRET ratio curve, often poorly fitted, with flat reads before Ran was added; inconclusive means other falling curves, or compound fluorescence or quenching; inactive means flat or rising ratio curve;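 also: potency is read from the fitted curve at half-maximal effect; % of control where 0% means no effect; nearly all actives have a fitted effect of over 45% in size; -100% = wells without RanGTP and RCC1; the record marks most hits as doubtful in a second field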
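Quantitative HTS using a FRET biosensor: 0.1 uM Rango, 0.25 uM importin beta, 0.6 uM Ran, 2 mM GTP, 0.2 uM RCC1 final, PBS with DTT, Tween-20 and BSA. Post-read taken 45 min after Ran addition.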
The depositor's hits bear a star; ? = inconclusive; . = not tested or not shown; & = joins results of further samples; [ ] = another dose, or the depositor's remark. An excerpt; the hit share may differ from the screen's.

Rango-impB inh	GLA inh pH 4.5	miR-21 FLuc	Rango release inh	canonical_smiles
-1.1%	.	.	-12%	O=C(Nc1ccccc1C(=O)NC1CC1)c1ccccc1F
2.1%	.	-3%	5%	COc1cccc(C(=O)C2CCCN(C(=O)c3ccccn3)C2)c1 (stereo not given)
-0.1%	11	-20%	-9%	COC(=O)c1cc2c(cc1N)OCCO2
-0.2%	-14	-4%	2%	CCOC(=O)COc1ccsc1C(=O)OC
-1.0%	.	0%	-1%	CC(=O)c1cccc(NC(=O)Cn2cnc(S(=O)(=O)N3CCCC3)c2)c1
0.6%	1	-2%	1%	O=C(O)CC(C(=O)OC1CCCCC1)N1CCOCC1 (stereo not given)
-0.5%	.	.	2%	Cc1nn(-c2ccc(F)cc2)c(Cl)c1/C=C(/CC(=O)O)c1nc2ccccc2s1
0.0%	.	10%	-17%	CCOc1ccc(N2C(=O)C(Cl)=C(N3CCOCC3)C2=O)cc1
0.9%	.	-2%	14%	Cn1c(C(=O)O)cc2cc(Oc3ccccc3)ccc21
?	-12	4%	?	C=CCc1cc(/C=C2/NC(=O)N(CC(=O)OC)C2=O)cc(OC)c1O
4.0%	1	-54%	-11%	N/C(=N\OC(=O)c1ccccc1Cl)c1ccc(Cl)cc1
0.9%	1	-22%	-12%	Cc1ccc(Nc2nc(N)nc(CN3CCN(C(=O)c4ccco4)CC3)n2)cc1Cl
1.1%	-9	5%	10%	CN1C(=O)C(CC(=O)Nc2ccc(F)cc2)N(Cc2ccco2)C1=S (stereo not given)
-0.3%	8	-2%	-4%	CC(C)(C)n1nnnc1C(c1ccc(C(F)(F)F)cc1)N(Cc1ccccc1)Cc1ccco1 (stereo not given)
?	.	.	-26%	CCN(CC)CCNC(=O)c1ccc(NC(=O)c2cccc(S(=O)(=O)N3CCc4ccccc43)c2)cc1
2.9%	1	-6%	1%	Nc1cc([N+](=O)[O-])ccc1Nc1ccc(O)cc1
-1.3%	-2	19%	-6%	Cc1ccc(S(=O)(=O)N(C)C)cc1NC(=S)N1CCc2ccccc21
-3.7%	-8&-13	-3%	-26%	COC(=O)[C@H]1C[C@@H]1[C@H](NS(=O)(=O)c1ccc2ccccc2c1)c1ccccc1
-0.4%	2	-3%	1%	CC(=O)c1ccc(N2CCN(S(=O)(=O)c3cccc(S(=O)(=O)N4CCOCC4)c3)CC2)cc1
6.2%	-1	1%	-25%	COC(=O)C(CSCc1ccccc1)NC(=O)CSc1nc(C)cc(=O)[nH]1 (stereo not given)
-1.4%	.	.	-13%	Cn1c(N)c(C(=O)COC(=O)c2ccccc2C(=O)c2ccc(Cl)c([N+](=O)[O-])c2)c(=O)n(C)c1=O
?	24	-65%	?	Nc1ccccc1-c1nc2ccccc2s1
0.6%	5	-2%	-10%	CSc1cccc(CNC(=O)CC2C(=O)NCCN2CC(C)(C)C)c1 (stereo not given)
0.6%	4	-2%	7%	CCOc1ccc(N(CC(=O)Nc2ccccc2C)S(=O)(=O)c2c(C)[nH]c(=O)[nH]c2=O)cc1
-2.5%	3	-5%	-13%	Cn1ncc([N+](=O)[O-])c1C(=O)N/N=C/c1cccc([N+](=O)[O-])c1
4.8%	-6	-36%	8%	CC(SC1=NCCS1)C(=O)Nc1nnc(-c2ccc(Br)cc2)s1 (stereo not given)
-3.9%	.	.	0%	O=[N+]([O-])c1cccc(N=Nc2ccc(O)cc2O)c1
1.1%	.	.	23%	O=C(NCc1ccccc1)c1ccccc1
-1.4%	.	?	-10%	CCCCOc1ccc(N2C(N)=NC(N)=NC23CCCCC3)cc1
2.4%	-1	20%	?	O=C(Cc1c(Sc2ccccc2)c2ccccc2n1Cc1ccccc1)NCCO
-1.6%	.	-2%	16%	COc1ccccc1N1CCN(C(=O)c2cc3c(s2)CCCCC3)CC1
?	-10	3%	-3%	CCOc1ccc(C(=O)/C=C/c2ccc(OC)c(OC)c2)cc1
1.2%	6	26%	0%	Nc1ncnc(N2CCc3ccccc32)c1[N+](=O)[O-]
?	1	0%	?	N#Cc1c(Sc2ncc(C(F)(F)F)cc2Cl)nsc1C/C=N\OCc1ccccc1Br
-0.6%	6	18%	5%	CC(C)CC(COCc1ccc(Cl)cc1)N1CCN(C(=O)c2ccc(Cl)cc2Cl)CCC1=O (stereo not given)
?	.	20%&0%	-25%	COc1ccc(Cl)cc1S(=O)(=O)Nc1ccc2c(c1)n(C)c(=O)n2C
-0.9%	.	.	0%	O=C(COc1ccccc1)c1ccccc1
0.8%	.	0%	5%	COc1ccc(CCNS(=O)(=O)c2ccc(Br)cc2)cc1OC
-1.4%	.	.	4%	CNc1ccc(C=C2C=Cc3ccccc32)cc1
-2.9%	0	-6%	14%	CS(=O)(=O)c1ccc2nc(NC(=O)c3ccc(NS(=O)(=O)c4cccc([N+](=O)[O-])c4)cc3)sc2c1
3.3%	.	.	5%	CC1CCN(S(=O)(=O)c2ccc(C(=O)N3CCCC3C(=O)O)cc2)CC1 (stereo not given)
-1.6%	-2	-3%	1%	Cc1ccccc1NS(=O)(=O)c1ccc2c(c1)n(C)c(=O)n2C
0.3%	-2	2%	-5%	Cc1ccc(N(CC(=O)N/N=C/c2ccc(OCC(N)=O)cc2)S(C)(=O)=O)cc1Cl
0.0%	.	.	16%	CC[C@H](C)[C@H]1CNC(=O)C(=O)N1CC1CCN(CCc2ccc(Cl)c(Cl)c2)CC1
-0.4%	-14	-3%	12%	O=C(Nc1ccc(F)cc1)OCCOc1ccc([N+](=O)[O-])cc1
-0.5%	0	-8%	7%	Cc1c(C#N)c(N=CN(C)C)c(C(=O)c2ccc(Br)cc2)n1-c1ccccc1
-0.6%	1	-34%	1%	O=C(NCc1csc(-c2cccs2)n1)C1CC1
12%	.	-9%	14%	O=C(CN1CCN(CC(=O)Nc2ccc(Cl)cc2)CC1)Nc1ccc(F)cc1
3.7%	-1	?	1%	Cc1ccccc1NCc1ccc(O)c2ncccc12
2.5%	.	-7%	0%	CN1CN=C(NS(=O)(=O)c2ccc([N+](=O)[O-])cc2)NC1
4.5%	.	-5%	25%	O=C(CSCc1cc(=O)n2nc(C3CC3)sc2n1)Nc1ccccc1Cl
5.1%	-1	-1%	-11%	CC1(C)CC(CC(=O)Nc2ccccc2[N+](=O)[O-])C(=O)O1 (stereo not given)
0.3%	7	-51%	-1%	CC(C)n1cnc2cc(NCc3ccccn3)ccc21
-0.8%	-7	-5%	19%	COCCN(C(=S)Nc1cc(C)cc(C)c1)C(C)c1cccs1 (stereo not given)
1.9%	4	0%	2%	O=C(CN1CCN(CC(=O)Nc2ccccc2C(F)(F)F)CC1)Nc1ccccc1F
1.1%	2	-10%	-4%	COc1ccc(CC(=O)Nc2ccc(S(=O)(=O)Nc3cc(C)on3)cc2)cc1OC
4.0%	.	11%	0%	Cc1cc(OCC(=O)Nc2cccnc2)c2c(C)cc(=O)oc2c1
3.6%	-3	-19%	9%	COc1cc(C2C(S(=O)(=O)c3ccccc3)CON2C)ccc1OCc1ccc(F)cc1 (stereo not given)
-3.1%	.	-5%	1%	O=C(NCc1cccnc1)Nc1cccc(C(F)(F)F)c1
?	.	0%	2%	CCCc1cc(CN(C)C(=O)CC2C(=O)NCCN2Cc2ccccc2C)[nH]n1 (stereo not given)

More compounds follow:
Rango-impB inh	GLA inh pH 4.5	miR-21 FLuc	Rango release inh	canonical_smiles
1.6%	-8	-3%	11%	CC(=O)NC(NC(=S)Nc1c(C)n(C)n(-c2ccccc2)c1=O)C(Cl)(Cl)Cl (stereo not given)
-3.0%	-15	4%	-6%	CCn1c(COc2ccc(C)cc2)nnc1SCC(=O)Nc1ccc2c(c1)OCCO2
1.9%	-8	-1%	0%	COc1cccc(/C=N/n2cnc3c(cnn3-c3ccccc3)c2=O)c1
5.7%	.	1%	-8%	CCOC(=O)c1ccc(Nc2nc(N3CCOCC3)nc(N3CCOCC3)n2)cc1
-2.0%	1	-54%	-6%	Cc1ccccc1-c1noc(-c2cccs2)n1
-1.0%	-1	-14%	-4%	c1cncc(-c2nnc3sc(C4CCCCC4)nn23)c1
-3.7%	-6	11%	27%	C/C(=N\NC(=O)c1cc(C)nc2ccccc12)c1cccs1
-0.4%	.	.	-6%	CCN(c1ccccc1)S(=O)(=O)c1ccc(OC)c(NC(=O)CN2C(=O)NC(C)(C)C2=O)c1
-0.8%	6	-9%	0%	CCOC(=O)c1cc2sccc2n1CC(=O)Nc1ccc(OC)cc1
-1.7%	?	30%	-10%	O=C(CCc1ccc(S(=O)(=O)NC2CCCCC2)cc1)N(Cc1ccccc1)Cc1ccccc1
1.3%	4	-1%	17%	CN(C)CCOc1ccc(C(C)(C)c2ccccc2)cc1
0.3%	1	0%	-2%	COc1cc(C(=O)N2CCN(C(=O)c3ccccc3)CC2)cc(OC)c1OC
-1.2%	.	10%	-6%	COc1ccc(OC)c(CCNC(=O)C(C)n2nc(C)c3c(C)n(-c4ccccc4)nc3c2=O)c1 (stereo not given)
-3.0%	.	.	13%	COc1cccc(NC(=O)CN(C)C(=O)c2cc(-c3ccccc3)nc3ccc(C)cc23)c1
11%	.	.	1%	Cc1ccnc(NC(=O)c2cccc(S(=O)(=O)N3CCN(c4ccccc4)CC3)c2)c1
0.5%	.	13%	-3%	CCC(NC(=O)CNC(=O)CNC(=O)c1ccc(Cl)cc1Cl)c1ccc(C)cc1 (stereo not given)
?	.	-11%	?	Nc1ccccc1-c1nc2ccccc2c(=O)o1
-0.3%	.	-1%	0%	COc1ccc(NC(=O)N2CCCC2C(=O)NCc2ccccc2Cl)cc1 (stereo not given)
-1.9%	-2	3%	-18%	CC(CCc1ccccc1)NC(=O)Cc1cccs1 (stereo not given)
-1.7%	.	-35%	-10%	COc1ccc2c(c1)C(=O)CC(c1ccc3c(c1)OCCO3)O2 (stereo not given)
4.8%	.	-9%	14%	Cc1ccc(-c2nc(SC(C)C(=O)N3CCOCC3)n[nH]2)cc1 (stereo not given)
-0.5%	0[21.1 µM]	0%	-7%	COc1cccc(NC(=O)COC(=O)Cc2ccc(Br)cc2)c1
-1.2%	-4	-8%	0%	CCOC(=O)N1CCN(C(=O)C2CCN(S(=O)(=O)CC)CC2)CC1
.	1	-3%	.	COc1ccc2nc(C)c(C(=O)OCCN(C)C)cc2c1
-1.9%	-7	-43%	9%	CCOc1ccc(OCCSc2nc(C)cc(=O)[nH]2)cc1
-0.5%	-9	-5%	-1%	Cc1cc(Br)c2[nH]c3c(c2c1)CCCC3=O
0.7%	-15	-19%	-3%	Cc1[nH]c2ccccc2c1/C=C(\C#N)C(=O)NCC1CCCO1 (stereo not given)
-1.8%	-7	0%	-11%	CSc1nc(Sc2ccccc2)c2ccccc2n1
1.8%	.	-69%	4%	CCOC(=O)C1(Cc2cccc(OC)c2)CCCN(C(=O)CCN2CCCO2)C1 (stereo not given)
3.0%	.	.	0%	CC(OC(=O)Cc1ccsc1)C(=O)Nc1ccc(Cl)cn1 (stereo not given)
-0.7%	-18	0%	-3%	O=S(=O)(Nc1cccc(CCc2ccccn2)c1)c1cc(Cl)ccc1Cl

Compound profiles, from the list above.
Shown for CCOC(=O)N1CCN(C(=O)C2CCN(S(=O)(=O)CC)CC2)CC1 → Rango-impB inh: -1.2%; GLA inh pH 4.5: -4; miR-21 FLuc: -8%; Rango release inh: 0%
Shown for COc1cccc(/C=N/n2cnc3c(cnn3-c3ccccc3)c2=O)c1 → Rango-impB inh: 1.9%; GLA inh pH 4.5: -8; miR-21 FLuc: -1%; Rango release inh: 0%
